# Bioassay records from PubChem BioAssay.
# Polio RdRp inh: inhibitors of poliovirus RNA polymerase binding and polymerization. 150,000 tested, 0.66% active. % elongation, % (compound at 16.7 µg/mL). P03300. poliovirus polymerase elongation, fluorescence polarization; hits give low values; in the data active means % elongation below about 90%; further: some results filed as inactive read as strong as hits
# Target sequence (P03300 1749-2209 limits assumed): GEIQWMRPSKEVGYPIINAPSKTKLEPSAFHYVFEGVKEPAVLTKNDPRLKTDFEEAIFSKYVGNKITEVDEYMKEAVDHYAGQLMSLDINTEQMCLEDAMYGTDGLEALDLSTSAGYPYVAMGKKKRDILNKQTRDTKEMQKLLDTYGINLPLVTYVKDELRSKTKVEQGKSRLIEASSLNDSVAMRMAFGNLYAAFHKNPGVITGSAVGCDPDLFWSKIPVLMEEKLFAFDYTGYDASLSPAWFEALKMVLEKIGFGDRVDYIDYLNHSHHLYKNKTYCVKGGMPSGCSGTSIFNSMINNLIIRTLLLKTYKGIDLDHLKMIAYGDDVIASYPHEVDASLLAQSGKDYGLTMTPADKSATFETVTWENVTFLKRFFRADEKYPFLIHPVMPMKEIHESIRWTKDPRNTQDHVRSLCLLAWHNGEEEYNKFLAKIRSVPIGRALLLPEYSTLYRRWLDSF
# MenB inh: blocks the Mycobacterium tuberculosis MenB enzyme. P9WNP5. MenB enzyme assay, absorbance read-out; some hits fall short of the stated cut. inhibition, %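 (about 12 µg/mL by stock and volumes)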. 100,000 tested, 0.43% active. AID 540299;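 active means mean of two replicates above 30%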;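 further: 0% = no compound and 100% = wells with inactive enzyme; the first replicate is given; strong numbers were not always called active; inactives centre near -10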
# Target sequence (P9WNP5 whole entry, looked up): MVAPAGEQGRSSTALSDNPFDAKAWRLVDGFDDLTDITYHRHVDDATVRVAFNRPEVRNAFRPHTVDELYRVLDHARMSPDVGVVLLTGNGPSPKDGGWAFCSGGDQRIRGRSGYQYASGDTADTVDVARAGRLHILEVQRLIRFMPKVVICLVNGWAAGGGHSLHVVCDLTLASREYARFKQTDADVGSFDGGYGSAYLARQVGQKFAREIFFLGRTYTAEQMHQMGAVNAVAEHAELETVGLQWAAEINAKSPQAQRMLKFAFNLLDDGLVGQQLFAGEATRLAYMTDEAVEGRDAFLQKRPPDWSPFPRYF
# Mtb MbtI inh: inhibitors of Mycobacterium tuberculosis siderophore enzyme MbtI; P9WFX0; 100,000 tested, 0.89% active; inhibition, %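 (about 17 µg/mL by stock and volumes)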; AID 493033; purified MbtI enzyme, fluorescence intensity read-out;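 active means above 50% in both replicates, above 80% if mildly self-fluorescent; inactive means the rest, strongly fluorescent compounds included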;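 further: 0% = mean of negative and 100% = mean of positive controls; one replicate is shown; some compounds called inactive have numbers as strong as hits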
# Polio RdRp inh intensity: also measured in Polio RdRp inh; calls as there; % elongation; measured here: total intensity read-out; formula for this scale not given here;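 total fluorescence in place of polarization; lower means less elongation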
# Numbers without * were called inactive; nt = no result given; & = joins results of further samples.
SMILES,Polio RdRp inh,Polio RdRp inh intensity,MenB inh,Mtb MbtI inh
O=C(COc1ncnc2ccccc12)N1CCCC1,100,108,nt,4
CCOc1ccccc1C(=O)N1CCN(C(=O)c2ccccc2)CC1,105,106,-30,-7
COc1ccccc1OCc1nc(C#N)c(NCCCn2ccnc2)o1,100,101,4,0
CC1(C)C2CCC1(CS(=O)(=O)NCc1ccc(Cl)cc1Cl)C(=O)C2 (stereo not given),101,96,nt,-5
Cc1onc(-c2c(F)cccc2Cl)c1C(=O)NC(=S)NC1CCSC1=O (stereo not given),103,107,-12,-16
O=S1(=O)CCC(N=Cc2ccc(-c3ccc(Br)cc3)o2)C1 (stereo not given),106,102,-9,24
Cn1/c(=N\NC(=O)C2CCCCC2)sc2ccccc21,100,101,5,2
O=C(N/N=C1/C(=O)c2cccc3cccc1c23)c1ccc2c(c1)OCO2,102,100,-44,4
Cc1c(OCc2ccc(F)cc2)ccc2c3c(c(=O)oc12)CCCC3,108,110,-10,nt
O=C1Cn2nnc(C(=O)c3ccccc3)c2C2(CCCCC2)O1,104,110,-15,nt
CC(Oc1ccc(Cl)cc1Cl)C(=O)Nc1nncs1 (stereo not given),104,108,-14,nt
CC(Cc1c[nH]c2ccccc12)NC(=O)c1ccco1 (stereo not given),104,106,-15,-13
O=C1NCCCC1C(=O)N1CCCCC1 (stereo not given),104,100,-30,nt
Cc1ccc(OCCn2cccc2/C=C2/C(=N)N3C(c4ccccc4)=CSC3=NC2=O)cc1,103,103,8,-5
O=C(Cc1ccc2c(c1)OCCO2)Nc1ccccc1C(F)(F)F,105,98,-7,4
COc1ccc(C(=O)Nc2cc(C)c(O)c(S(=O)(=O)c3ccc(Cl)cc3)c2C)cc1,108,108,-11,nt
CCCN1C(=O)c2cc(C(=O)NC3CCCC3)ccc2C1O (stereo not given),103,108,-20,1
CC1(C)CC(=O)C=C(Nc2ccc(O)cc2)C1,101,102,-27,14
CSC(=S)NNC1=NCCC1,102,104,-51,-7
CC(C)Cc1ccc(C(=O)O)cc1,104,103,-5,-26
Oc1cc(O)c2c(c1)O[C@H](c1ccc(O)c(O)c1)[C@@H](O)C2,100&101,101&97,-8&5,7
CCOC(=O)C1CCCN(CC(O)COC(c2ccccc2)c2ccccc2)C1 (stereo not given),101,100,-22,-10
O=c1[nH]cnc2c1c(-c1ccccc1)cn2-c1ccccc1,101,96,6,11
CCCNC(=O)C1CCN(C(=O)c2sccc2-n2cccc2)CC1,102,103,0,1
S=c1nc(-c2ccccc2)n(CC2CCCO2)c2c1CCCC2 (stereo not given),102,109,-16,12
Cc1cc(NC(=O)c2ccc(N3C(=O)CCC3=O)cc2)nc2c1c(=O)oc1ccccc12,99,104,0,12
CC(NC(=O)c1ccco1)C1CCCO1 (stereo not given),98,99,-17,-1
O=C(NCc1ccccc1Cl)C1CCCN(c2nc3ccccc3o2)C1 (stereo not given),104,99,-18,-6
CS(=O)(=O)Nc1ccccc1C(=O)Nc1ccc2c(c1)OCCO2,99,103,2,-12
Cc1cc2n(n1)SC(Nc1ccc(F)c(Cl)c1)N2 (stereo not given),105,96,-3,nt
CC(=O)Nc1ccc(CSc2ccccc2)cc1,97,100,-20,1
CN1CCc2c(OCC(=O)N3CCCc4ccccc43)cccc2C1=O,100,101,-6,2
C=CCn1c(=O)c2ccc(C(=O)NCc3ccc4c(c3)OCO4)cc2n(CC(=O)Nc2cc(C)[nH]n2)c1=O,103,102,-16,-10
CCOC(=O)COc1ccc(C#N)cc1,102,106,-21,-14
Cc1ccc2[nH]c(=O)c3cc(C(=O)N(C)C4CCCCC4)sc3c2c1,101,102,-8,20
CN(Cc1ccccc1)C(=O)c1cc(-c2ccco2)[nH]n1,103,103,-7,-21
O=C(Nc1nc2nc(-c3cccs3)cc(C(F)(F)F)c2s1)c1ccco1,112,126,0,-104
C=CCn1c(CSc2ccc(C)cc2)n[nH]c1=S,96,101,-75,74*
C(=N\OCc1nnc(-c2ccc3ccccc3c2)o1)/c1cccc2c1OCO2,102,105,-8,-3
Cc1ccc(S(=O)(=O)N(C)CC(=O)Nc2ccccc2C(F)(F)F)cc1,102,104,-10,-9

# An excerpt from above in order of heavy-atom count, lowest first.
SMILES,Polio RdRp inh,Polio RdRp inh intensity,MenB inh,Mtb MbtI inh
CSC(=S)NNC1=NCCC1,102,104,-51,-7
CC(C)Cc1ccc(C(=O)O)cc1,104,103,-5,-26
CCOC(=O)COc1ccc(C#N)cc1,102,106,-21,-14
CC1(C)CC(=O)C=C(Nc2ccc(O)cc2)C1,101,102,-27,14
C=CCn1c(CSc2ccc(C)cc2)n[nH]c1=S,96,101,-75,74*
CN(Cc1ccccc1)C(=O)c1cc(-c2ccco2)[nH]n1,103,103,-7,-21
CCCN1C(=O)c2cc(C(=O)NC3CCCC3)ccc2C1O (stereo not given),103,108,-20,1
S=c1nc(-c2ccccc2)n(CC2CCCO2)c2c1CCCC2 (stereo not given),102,109,-16,12
CS(=O)(=O)Nc1ccccc1C(=O)Nc1ccc2c(c1)OCCO2,99,103,2,-12
Cc1ccc2[nH]c(=O)c3cc(C(=O)N(C)C4CCCCC4)sc3c2c1,101,102,-8,20
Cc1ccc(S(=O)(=O)N(C)CC(=O)Nc2ccccc2C(F)(F)F)cc1,102,104,-10,-9
C(=N\OCc1nnc(-c2ccc3ccccc3c2)o1)/c1cccc2c1OCO2,102,105,-8,-3
CCOC(=O)C1CCCN(CC(O)COC(c2ccccc2)c2ccccc2)C1 (stereo not given),101,100,-22,-10
COc1ccc(C(=O)Nc2cc(C)c(O)c(S(=O)(=O)c3ccc(Cl)cc3)c2C)cc1,108,108,-11,nt
Cc1cc(NC(=O)c2ccc(N3C(=O)CCC3=O)cc2)nc2c1c(=O)oc1ccccc12,99,104,0,12
C=CCn1c(=O)c2ccc(C(=O)NCc3ccc4c(c3)OCO4)cc2n(CC(=O)Nc2cc(C)[nH]n2)c1=O,103,102,-16,-10

# Filtered by structure, the compounds so far with a CF3 group
SMILES,Polio RdRp inh,Polio RdRp inh intensity,MenB inh,Mtb MbtI inh
O=C(Cc1ccc2c(c1)OCCO2)Nc1ccccc1C(F)(F)F,105,98,-7,4
O=C(Nc1nc2nc(-c3cccs3)cc(C(F)(F)F)c2s1)c1ccco1,112,126,0,-104
Cc1ccc(S(=O)(=O)N(C)CC(=O)Nc2ccccc2C(F)(F)F)cc1,102,104,-10,-9

# Later entries:
SMILES,Polio RdRp inh,Polio RdRp inh intensity,MenB inh,Mtb MbtI inh
CC(C)CNS(=O)(=O)c1ccccc1C(=O)N1CCCCC1,102,102,-7,-9
COc1cc(OC)cc(C(=O)NCCOC23CC4CC(CC(C4)C2)C3)c1,101,106,-10,nt
O=C(COC(=O)c1c(-n2cccc2)sc2c1CCCC2)Nc1ccc(F)cc1,104,98,-11,-8
CC(NC(=O)C12CC3CC(CC(C3)C1)C2)C(=O)NC1CCCCC1 (stereo not given),101,103,2,5
CCN1CCN(C(=O)C2=CC(c3ccc(F)cc3)=NS(=O)(=O)N2C)CC1,101,103,-10,-5
COc1ccc(Nc2nc(Cl)nc(NCCO)n2)cc1,103,101,-15,1
CC(CS(=O)(=O)c1ccccc1)N1CCOCC1 (stereo not given),101,102,-34,-8
C=C1c2c(Cl)ccc(O)c2C(O)=C2C(=O)[C@]3(O)C(O)=C(C(N)=O)C(=O)[C@@H](N(C)C)[C@@H]3[C@@H](O)[C@H]12,102&99,103&101,4&8,-54&-81
Cc1cccc(NC(=O)Cn2cnc3ccccc3c2=O)c1C,108,108,-5,nt
CC(C)c1ccc(N=C2CC(=O)NN2)cc1,103,109,-39,-2
COc1ccc(-c2oc(N(C(=O)c3cccs3)C(=O)c3cccs3)c(C#N)c2-c2ccc(OC)cc2)cc1,120,128,-9,-38
Cc1cccc(OCCn2c(SCCC(=O)O)nc3ccccc32)c1,101,103,5,2
FC(F)(F)COc1ccc(-c2nc(-c3ccc(Cl)cc3)cs2)cn1,108,103,-2,2
CCCn1c2ccccc2c2nnc(SCN3C(=O)c4ccccc4C3=O)nc21,100,105,-4,nt
Cc1cc(NO)nc(-c2ccc(Br)cc2)n1,99,102,-15,47
CCOC(=O)N1CCC(NC(=O)c2ccc3c(c2)N=C(CC)c2ccccc2S3)CC1,100,109,3,-3
CN(Cc1ccc(Cl)s1)Cn1cnnc1C#N,105,101,11,-10
Cc1noc(C)c1-c1nc(CN2C(=O)c3ccccc3S2(=O)=O)no1,105,107,11,-6
C=CCNC(=O)c1cccc(Br)c1,103,103,-20,-2
COC(=O)c1sccc1S(=O)(=O)N1CCC2(CC1)OCCO2,99,103,-4,-3
Nc1ccc(C(=O)Nc2ccccc2)cc1,99,101,-22,17
COc1cccc(/C=N\N2CCN(c3ccccc3OC)CC2)c1,104,102,-37,-4
Cc1sc2nc(CSC(C)C(=O)NC3(C#N)CCCCC3)[nH]c(=O)c2c1C (stereo not given),132,162,-18,87
CCCCC(=O)Nc1ccc(C(=O)NCc2cccnc2)cc1,102,102,-19,-14
Cc1ccc(N(CCO)S(=O)(=O)c2ccc(NC3=NS(=O)(=O)c4ccccc43)cc2)cc1,101,102,31,11
Cc1ccc(C)c(C(=O)CSc2nnc(-c3cccc(S(=O)(=O)N4CCOCC4)c3)o2)c1,103,109,-12,-3
C=CCOc1ccc(C(=O)NCC)cc1,101,101,-16,-7
O=c1[nH]nc(SCc2ccc(CSc3n[nH]c(=O)[nH]c3=O)cc2)c(=O)[nH]1,97,107,-9,28
COc1ccc(CCN2C(=O)CC(=O)NC2=S)cc1OC,100,103,-121,27
C=CC(c1ccccc1)C(C(=O)c1ccccc1)N(C)C (stereo not given),104,102,-2,-1
O=C(C1CCCO1)N1CCN(C(=S)NCc2ccc(F)cc2)CC1 (stereo not given),104,104,-7,-13
OC1CCN(Cc2ccccc2)CC1,112,112,11,0
Cc1ccc(N/C(N)=N/c2nc(C(F)(F)F)cc(C(F)(F)F)n2)cc1,99,107,-25,-2
CCn1nc(C)cc1C(=O)Sc1ccccc1Cl,101,105,3,0
O=C(COc1c(Br)cc(Br)c2cccnc12)N1CCNC1=O,103,96,7,13
NNC(=O)Cc1csc(CC(N)=O)n1,101,101,5,-6
CC1CCCN(C(=O)c2ccc(NS(=O)(=O)c3cccs3)cc2)C1 (stereo not given),99,94,-19,5
CCCc1nc2ccccc2c(C(=O)OCC(=O)NC)c1CC,101,111,8,10
C[C@]12CCC(=O)C=C1C=CC1C2CC[C@@]2(C)C1CC[C@@]21CCC(=O)O1 (stereo not given in full),102,101,-11,4
COCCN(C(C)=O)c1nnc(-c2cccnc2)s1,101,103,14,14

# Brought forward from above: two compounds, then new ones.
SMILES,Polio RdRp inh,Polio RdRp inh intensity,MenB inh,Mtb MbtI inh
C[C@]12CCC(=O)C=C1C=CC1C2CC[C@@]2(C)C1CC[C@@]21CCC(=O)O1 (stereo not given in full),102,101,-11,4
COCCN(C(C)=O)c1nnc(-c2cccnc2)s1,101,103,14,14
Cc1ccc(CNC(=O)c2cnn(-c3ccccc3)c2-n2cccc2)cc1,103,104,4,-2
COc1ccc(CN(C)C(=O)C2CC3C=CC2C3)c(OC)c1 (stereo not given),106,100,-2,-27
COc1ccccc1C1C(C(=O)OCC(N)=O)CCC(=O)N1c1ccc(C)cc1 (stereo not given),105,108,-11,-3
CC(C)C(NC(=O)c1ccc(Cl)cc1)C(=O)Nc1cccc(-n2cnnn2)c1 (stereo not given),102,104,-16,-7
COc1ccc(C(O)CNc2ccc(C)cc2)cc1 (stereo not given),98,95,-3,nt
O=C1C2C3CC4C1C1C2CC3C41 (stereo not given),107,110,-8,-2
CC(=O)Nc1sc(C)c(C)c1C(=O)OCC(=O)c1cc(C)n(C)c1C,100,102,-4,123
Cc1cc2nnc(SCc3ccc(Cl)cc3)n2c2ccccc12,103,103,-13,-69
CCCN(CCC)C(=O)c1cc(-c2ccc3c(c2)OCO3)nc2ccccc12,103,106,-23,-283
CCc1nnc2c(NCC3CCCN3CC)nc3ccccc3n12 (stereo not given),101,102,-3,8
COC(=O)c1ccc(NC(=O)CSc2nnc(N)s2)cc1,102,109,-2,nt
Cc1cc(NC(=O)Cc2cn3ccsc3n2)n(-c2ccccc2)n1,104,109,nt,-4
O=C(c1cccc2ccccc12)N(C1CCCC1)C1CCCC1,105,108,-9,nt
CCCN1Cc2cccc(C(=O)N3CCN(c4ccc(OC)cc4)CC3)c2C1=O,102,102,-12,-4
CCc1cc2c3c(c(=O)oc2cc1OCC(=O)O)CCCC3,103,101,-12,114
COc1ccc(-n2c(SCc3ccc(C#N)cc3)nc3ccccc32)cc1,101,110,-22,25
COc1ccc(S(=O)(=O)N2CCN(C(=S)NC3CCCCC3)CC2)cc1,103,104,-39,2
Cc1ccc2ncc(-c3ccc4cc(C)ccc4n3)cc2c1,103,108,3,-9
CCOC(=O)c1c(NC(=S)Nn2cnnc2)sc2c1CCCCCC2,98,100,-41,89*
C=CCN(Cc1cc(=O)n2ccsc2n1)S(=O)(=O)c1ccc(Cl)cc1,103,118,-16,18
N=C(N)SCc1csc2c1CCCC2,102,104,-3,-3
